VDR inh: blocks the human vitamin D receptor. P11473. VDR-SRC2-3 peptide fluorescence polarization, 2 h. Potency, µM, inactives show max response, negative = inhibition, actives largely listed as inhibitors. actives 0.93% (n = 400,000); active means well fitted inhibition curve with a large enough effect; inconclusive means small, poorly fitted or top-dose-only effect, or another doubt; inactive means no such curve, though single readings can be large or run the other way; further: series mostly up to about 120 µM
Target sequence (P11473 whole entry, looked up): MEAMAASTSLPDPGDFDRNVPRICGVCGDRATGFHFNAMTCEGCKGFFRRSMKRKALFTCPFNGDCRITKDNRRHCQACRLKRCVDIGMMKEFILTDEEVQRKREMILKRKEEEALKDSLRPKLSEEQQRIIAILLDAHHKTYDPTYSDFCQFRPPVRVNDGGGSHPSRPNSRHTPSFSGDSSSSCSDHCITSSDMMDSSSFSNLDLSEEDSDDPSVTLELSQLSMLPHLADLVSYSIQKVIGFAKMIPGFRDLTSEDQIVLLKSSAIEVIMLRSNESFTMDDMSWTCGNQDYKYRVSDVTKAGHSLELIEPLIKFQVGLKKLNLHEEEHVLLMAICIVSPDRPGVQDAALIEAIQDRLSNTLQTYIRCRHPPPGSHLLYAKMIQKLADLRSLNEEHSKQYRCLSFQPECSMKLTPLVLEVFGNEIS
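Two reagent solutions held at 4 deg C in the dark were dispensed, compounds pinned at 23 nl, and the mixture incubated 2 h at room temperature. Read-out: fluorescence polarization of VDR–SRC2-3 peptide binding.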
Active calls of the source: *; ? = inconclusive; & = joins results of further samples. On the % scale 0 is the no-effect control and ±100 the full control effect; potency means the concentration at half of the fitted maximal effect.

VDR inh,Structure
-16.7%,CC(=O)n1cc([C@@H]2C=C(C(=O)N3CCOCC3)O[C@H](OCCCCO)C2)c2ccccc21
-4.3%,CCOC(=O)c1c(NC(=O)CSc2nnc3c(n2)[nH]c2ccc(F)cc23)sc(C(C)=O)c1C
-26.2%,CC(C)(C)OC(=O)N/N=C/c1cccc([N+](=O)[O-])c1
1.6%&-2.6%,Cc1cc(C)n(-c2nc(N(C)C)nc(N(C)C)n2)n1
6.2%,O=C(O)CCC(=O)Nc1ccc(F)cc1
8.6%,Cc1ccc2nc(CSc3nnc(-c4ccco4)n3-c3ccccc3)cc(=O)n2c1
-27.6%,COc1cc2[nH]c(=S)n(Cc3ccc(C)cc3)c(=O)c2cc1OC
-8.1%,Cc1ccccc1N(CC(=O)NCCc1ccccc1)C(=O)CCC(=O)Nc1ccccn1
-1.7%,Cc1ccc(NC(=O)CN2C(=O)NC(Cc3c[nH]c4ccccc34)C2=O)cc1S(=O)(=O)N1CCCCC1 (configuration not stated)
-6.3%,Cc1nc2cc(NCc3cc([N+](=O)[O-])ccc3O)ccc2n1Cc1ccccc1
-8.6%,COc1ccc(NC(=O)c2ccccc2N(Cc2ccccc2)S(C)(=O)=O)c(OC)c1
-11.8%,CC12CC3CC(C)(C1)CC(C(=O)NCc1ccncc1)(C3)C2
-14.9%,Cc1c(Br)c([N+](=O)[O-])nn1CC(=O)NCc1ccco1
-26.3%,O=c1[nH]c(=O)n([C@@H]2O[C@H](CO)[C@@H](O)[C@H]2O)cc1F
6.5%,CC(CNC(=O)c1ccc2c(c1)nc1n2CCOC1)c1ccccc1 (configuration not stated)
-8.2%,CC(C)N1CCCC(CNC(=O)CCc2nnc(CCCCc3ccccc3)o2)C1 (configuration not stated)
-6.3%,CC(C)CCNC(=O)Cn1c(=O)oc2cc(S(=O)(=O)N3CCc4ccccc43)ccc21
8.9%,CCOC(CCn1c(SCC(=O)NC2CCCC2)nc2ccccc2c1=O)OCC
-19.0%,NCC1CCN(c2nc3ccccc3c3c2CCCC3)CC1
4.0%,Cc1ccc(OCC(=O)Nc2ccc3c4c(cccc24)CC3)c(C)c1
-16.7%,Cc1cccc2nc(-c3cccc(NC(=O)c4ccc(Cl)cc4)c3)cn12
7.2%,O=c1cc(-c2ccccc2O)oc2cc(O)ccc12
-5.5%,C/C(=N\NC(=O)CNc1cccc2ccccc12)c1ccc(Br)s1
-5.6%,COc1ccc(NC(=O)CSc2nc3c(c(=O)n2C)SCC3)cc1OC
-8.5%,O=C(NCCCCc1ccccc1)C1CC(c2ccc([N+](=O)[O-])cc2)=NO1 (configuration not stated)
-5.6%,CC1(C)C2([N+](=O)[O-])CN3CC1([N+](=O)[O-])CN(C2)C31CCCC1
-2.8%,O=c1[nH]c2ccc(S(=O)(=O)Nc3ccc(-c4nnc5n4CCCCC5)cc3)cc2o1
-8.8%,O=C(NC(=S)Nc1ccc(CN2CCOCC2)cc1)c1ccc(-c2cccc(Cl)c2)o1
-4.9%,O=C(Cc1ccccc1)NC1CCN(C(=O)NCc2ccccc2)CC1
17.8%,CCOC(=O)c1c(-c2cccc(C)c2)csc1NC(=O)c1c(-c2ccccc2)noc1C

Some of the entries so far, as comma-separated lines.
Structure,VDR inh
CC(C)CCNC(=O)Cn1c(=O)oc2cc(S(=O)(=O)N3CCc4ccccc43)ccc21,-6.3%
COc1ccc(NC(=O)CSc2nc3c(c(=O)n2C)SCC3)cc1OC,-5.6%
Cc1ccc(OCC(=O)Nc2ccc3c4c(cccc24)CC3)c(C)c1,4.0%
Cc1ccc(NC(=O)CN2C(=O)NC(Cc3c[nH]c4ccccc34)C2=O)cc1S(=O)(=O)N1CCCCC1 (configuration not stated),-1.7%
Cc1cc(C)n(-c2nc(N(C)C)nc(N(C)C)n2)n1,1.6%&-2.6%
CC(=O)n1cc([C@@H]2C=C(C(=O)N3CCOCC3)O[C@H](OCCCCO)C2)c2ccccc21,-16.7%

The list goes on:
VDR inh,Structure
-4.5%,COc1ccccc1NC(=O)Nc1nc(CC(=O)NCc2c(F)cccc2F)cs1
5.8%,COc1ccc(CNC(=O)CSc2nc3ccc(OC)cc3[nH]2)cc1
?,COc1ccc(N2C(=O)/C(=C/c3cccs3)NC2=S)cc1
-2.1%,CCc1ccc(NC(=O)CC2C(=O)N(c3ccc(Cl)cc3)C(=O)N2Cc2ccco2)cc1 (configuration not stated)
-16.6%,COCCNc1oc(/C=C/c2ccc(F)cc2)nc1S(=O)(=O)c1ccccc1
-19.1%,CCCC(=O)c1ccc(N2CCC(C)CC2)c(F)c1
10.9%,O=C(Nc1ccc2c(c1)ncn2-c1ccccc1)c1ccco1
-3.7%,CCOc1ccc(C(=O)OCC(=O)NCc2ccco2)cc1OCC
-8.2%,CC(C)S(=O)(=O)c1csc(NC(=O)Nc2ccc(Cl)cc2)c1Cl
0.1%,COc1ccc(S(=O)(=O)N2CCN(c3cccc(C)c3C)CC2)cc1
6.9%,COc1ccc(CNc2ccc(S(=O)(=O)N3CCN(C)CC3)cn2)cc1OC
-5.2%,O=C(NC1CCCC1)C(c1ccccn1)N(Cc1ccc(F)cc1)C(=O)c1csnn1 (configuration not stated)
-11.5%,O=C(Nc1ccc(-c2cnco2)cc1)c1ccc(F)cc1F
0.2%,CC1=NN(Cc2ccccc2)C(=O)/C1=C/c1ccc(N(C)C)cc1
4.4%,CC(C)c1ccccc1NC(=O)c1cccc(NC(=O)c2ccccc2)c1
-13.4%,O=C(Nc1ccc(OCc2cc(=O)n3ccsc3n2)cc1)c1ccc(F)cc1
2.1%,O=C1CC(c2ccc(F)cc2)c2cc3c(cc2N1)CCC3 (configuration not stated)
-9.9%,C/C(=N\Nc1ccc([N+](=O)[O-])cc1)c1ccc(-n2nncc2C(C)(C)C)cc1
-15.9%,C=CCN1C(=NC(=O)CCCC(=O)O)SC2CS(=O)(=O)CC21 (configuration not stated)
-10.2%,COC(=O)C1=C(C)NC(C)=C(C(=O)O[C@@H]2CCCN(Cc3ccccc3)C2)[C@@H]1c1cccc([N+](=O)[O-])c1
-3.0%,Cc1ccnc2nc(C(=O)NC3=NCCS3)nn12
-16.3%,CSc1ccc(S(=O)(=O)N2CCC(C(=O)NCc3ccncc3)CC2)cc1
-3.9%,Nc1nonc1C(=O)OCC(=O)c1ccc(Cl)cc1
4.0%,Cc1cccc(NC(=O)CSc2ccc(-c3sc(-c4ccccc4)nc3C)nn2)c1C
-5.1%,CC(=O)Nc1ccc(Nc2nnc(-c3ccc(O)cc3)c3ccccc23)cc1
-1.8%,Cc1nc(C)n(CC(=O)N2CCCC(C(=O)c3cccc4ccccc34)C2)n1 (configuration not stated)
8.8%,CC(=O)c1ccc(-n2c(CCC(=O)O)ccc2-c2ccc(C)cc2)cc1
2.1%,COc1ccc(C(=O)CC(=O)C(=O)Nc2cccc([N+](=O)[O-])c2C)cc1
-5.0%,COc1cc2cncc(Cc3ccccc3)c2cc1O
0.7%,COc1ccc(NC(=O)C(OC(=O)c2ccc([N+](=O)[O-])o2)c2ccccc2)cc1Cl (configuration not stated)

A run of entries taken from the entries so far:
VDR inh,Structure
-4.5%,COc1ccccc1NC(=O)Nc1nc(CC(=O)NCc2c(F)cccc2F)cs1
5.8%,COc1ccc(CNC(=O)CSc2nc3ccc(OC)cc3[nH]2)cc1

Remaining list, next part
VDR inh,Structure
-15.7%,COc1c(C)cc(Br)cc1C(=O)NC(=S)Nc1ccc(Cl)c(C(=O)O)c1
?,CC1CCCCN1C(=O)CSc1c2c(nc3cc(Cl)ccc13)CCCC2 (configuration not stated)
-10.3%,O=C(NNS(=O)(=O)c1ccccc1)c1cccnc1
-10.3%,CCCC(=O)NC1=C(C#N)C2(CCCCC2)Cc2ccccc21
0.7%,CCc1ccccc1N(C(C)=O)c1nc(CCl)cs1
19.2%,O=C(NC1CCS(=O)(=O)C1)OC1CCCCC1 (configuration not stated)
-1.8%,CC1CCCC(C(=O)O)N1C(=O)CCSC(=O)c1ccccc1 (configuration not stated)
-20.1%,c1cc(-c2cc3cc(N4CCOCC4)ccc3o2)cs1
-25.4%,CC[C@@]1(C(=O)OC)N[C@H](CN(C)C(=O)Nc2ccc(Cl)cc2)[C@@H]2C(=O)N(C)C(=O)[C@@H]21
-7.7%,O=C(Cc1ccccc1)N[C@@H](Cc1ccccc1)C(=O)O
-21.9%,O=C(NNc1cccc(Cl)n1)Nc1ccccc1
-8.2%,Cc1ccc(C)c(NC(=O)N2CCCCCC2)c1
8.2%,Cc1ccc(N2C(=O)c3ccc(C(=O)O)cc3C2=O)cc1C
-11.5%,COc1cc(S(=O)(=O)NCCc2c(C)[nH]c3ccccc23)c(C)cc1C
0.9%,CC(NC(=O)C12CC3CC(CC(C3)C1)C2)C(=O)N/N=C/C1=C(N2CCOCC2)C(=C\c2cccc([N+](=O)[O-])c2)/CC1 (configuration not stated)
-1.9%,Cc1cc(C)cc(NS(=O)(=O)c2ccc3[nH]cc(C(=O)N4CCc5ccccc54)c(=O)c3c2)c1
8.3%,CC(=O)c1ccc(NC(=O)Cc2cccs2)cc1
-11.5%,Cc1c(C(=S)NC(=O)C2CC2)c(=O)n(-c2ccccc2)n1C
15.0%,O=C(Cn1cnc2ccc(Cl)cc2c1=O)c1cccs1
-10.4%,O=C(c1ccco1)N1CCN(Cc2nc3ccccc3c(=O)n2-c2ccc(F)cc2)CC1
-2.9%,CCC1OC(=O)C[C@@H](O)[C@H](C)[C@@H](OC2OC(C)CC(N(C)C)C2O)[C@@H](CC=O)C[C@@H](C)C(=O)/C=C/[C@]2(C)OC2C1C (some centres not stated)
-1.4%,Cc1nn(C)cc1/C=N/n1nnnc1N
-0.5%,CCC(Sc1nc(-c2ccc(F)cc2)nc2c1Cc1c(CO)cnc(C)c1O2)C(=O)Nc1ccc(F)cc1 (configuration not stated)
4.5%,Cc1ccccc1NC(=O)c1ccc2ccccc2c1
-4.5%,COc1ccccc1NS(=O)(=O)c1cc(NC(=O)c2ccc3ccccc3n2)ccc1Cl
-16.0%,Cc1ccc(NC(=O)c2nc[nH]c2C(=O)N2CCc3ccccc3C2)cc1
3.5%,CCc1ccccc1N1C(=O)N(Cc2ccccc2C)c2ccccc2S1(=O)=O
-16.3%,O=S(=O)(c1ccccc1)c1nc(-c2ccc(F)cc2)oc1N1CCCCCC1
?,O=C(N/N=C/c1ccc(-c2ccccc2[N+](=O)[O-])o1)[C@H]1C[C@@H]1c1ccccc1
1.6%,O=C(Nc1ccccc1N1CCCCC1)c1ccc(-c2cc(Cl)ccc2Cl)o1

VDR inh,Structure
-25.6%,CCOc1ccc(C(=O)Nc2ccc3oc(-c4ccncc4)nc3c2)cc1
8.3%,Cc1oc(S(=O)(=O)N2CCCC2)cc1C(=O)Nc1ccccc1
3.8%,Cc1ccccc1NC(=S)NC1CCN(Cc2ccccc2)CC1
28.9%,c1ccc2c(c1)nc(N1CCCCCC1)c1ccccc12
-13.8%,CC(C)[C@H](NC(=O)c1cccc(S(=O)(=O)N2CCOCC2)c1)C(=O)NCc1ccc(F)cc1
-14.4%,Cc1ccc(S(=O)(=O)N(C)C)cc1-n1c(SCC(=O)Nc2ccccc2)nc2ccccc2c1=O
-10.4%,O=C(Nc1ccc2ccccc2c1)c1ccc(Cl)cc1
0.1%,CC(=NCCc1c(C)[nH]c2ccc(C)cc12)C1=C(O)CC(c2ccccc2)CC1=O (configuration not stated)
-17.6%,Cc1ccc(C(=O)n2c(-c3ccccc3)cnc2SCC(=O)Nc2ccccc2)cc1
-1.3%,CC(=O)Nc1ccc(C2NC(=O)c3ccccc3O2)cc1 (configuration not stated)
-2.8%,COc1ccc(CN2C(=O)c3ccccc3C2=O)cc1C(=O)OCC(=O)NC1CCCCC1
-18.2%,Cn1ncc([N+](=O)[O-])c1C(=O)Nc1ccc(-c2nc3ccccc3o2)cc1
-13.1%,CSc1nc(SCCO)c2sc3nc(-c4ccco4)c4c(c3c2n1)CC(C)(C)OC4
10.8%,CCc1cc2c(N=Nc3c(O)[nH]c4ccccc34)ncnc2s1
7.9%,CCC1CCCCN1C(=O)c1sc(-n2nc(C)c(Cc3ccccc3)c2C)nc1C (configuration not stated)
17.7%,Cc1ccc(S(=O)(=O)N2CCC(C(=O)N[C@@H](C)C(=O)Nc3ccc(F)cc3)CC2)cc1
-14.4%,COC(=O)C(Cc1c[nH]c2ccccc12)NC(=O)c1cncc(Br)c1 (configuration not stated)
-17.0%,COc1cccc(C(c2c(O)cc(C)n(Cc3ccco3)c2=O)N2CCN(c3ccccc3)CC2)c1 (configuration not stated)
-6.0%,COc1cccc(C(=O)Nc2ccc(Cl)c(C(F)(F)F)c2)c1
16.9%,C=CCOc1ccc(CNn2cn[nH]c2=S)cc1
-6.4%,CC1=C(C(N)=O)C(c2cccnc2)n2nc(-c3cccc(C)c3)nc2N1 (configuration not stated)
12.6%,O=C(CCCN1C(=O)c2ccccc2C1=O)Nc1nncs1
17.8%,Cc1onc(-c2ccccc2)c1C(=O)N=C(N)c1ccc(Cl)cc1
4.5%,N#Cc1c[nH]n2c(NC3CCCC3)c(-c3cccc(Cl)c3)nc12
?,COc1ccc(CCNC(=O)c2cc(C3CC3)on2)cc1OC
-2.9%,COc1ccc(S(=O)(=O)N(C)C[C@H]2Oc3c(NS(=O)(=O)c4cn(C)cn4)cccc3C(=O)N([C@H](C)CO)C[C@@H]2C)cc1
14.2%,O=C(Nc1cccc(-c2cn3cccnc3n2)c1)Nc1ccccc1F
3.3%,Cc1cn(C(=O)c2ccccc2)c(=S)n1-c1ccc(Cl)cc1
-9.3%,COc1ccc(C)cc1-n1nnnc1SCc1nc2ccccc2s1
-13.9%,O=C1c2oc3ccccc3c(=O)c2C(c2cccs2)N1CCCN1CCOCC1 (configuration not stated)
-7.3%,CCOc1ccc(N(CC(=O)NC2CCCCC2)C(=O)CCC(=O)Nc2ccccn2)cc1
0.3%,CCCOc1ccc(N2C(=O)CC(N3CCC(c4nncn4CC)CC3)C2=O)cc1 (configuration not stated)

Screening results from PubChem BioAssay.

An excerpt; rates above refer to the full screens.
